Autofluor counter: compound fluorescence in toxin protease inhibitor counterscreen; compound autofluorescence counterscreen, microsphere flow cytometry; active compounds read high; fluorescence intensity (no concentration beside the values); 360,000 compounds, 3.1% hits;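 active = at least 3 SD above the mean of all compounds, about 16000 in these data; inconclusive = too few beads counted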;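 note: 100 nL of 1 mM stock went into each well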
PrP 5UTR inh: suppresses PrP 5' UTR mRNA reporter expression | 340,000 compounds, 0.35% hits | cell-based PrP 5' UTR mRNA reporter, plate reader | inhibition, % (no concentration beside the values);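 active = every replicate at 50% or more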;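 note: 0 = median of the neutral control wells; tested in H4 reporter cells; numbers are from one replicate; inactives centre near -14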
BJeLR viability: kills HRASV12-expressing BJeLR cells | 300,000 compounds, 0.17% hits | BJeLR (HRASV12) viability, CellTiter-Glo ATP luminescence, 48 h; reference of the scale not given here | inhibition, % (concentration not given with the values);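 active = replicate mean above 50%; inconclusive = above 50% but judged a plate artefact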;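 note: 50 nL library stock added to about 25 µL; numbers are from one replicate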
RN4220 kill: kills Staphylococcus aureus RN4220; S. aureus RN4220 growth, OD600, 16 h; inhibition, % (concentration not given with the values); 330,000 compounds, 0.33% hits;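 active = z-score of -3 or lower and OD600 up to 0.18 on both plates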;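 note: plate controls were untreated cells for no effect and reference antibiotic for full effect; stock transfer was 100 nL into about 80 µL; one replicate is shown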
Sa ugtP lethal: growth inhibition of S. aureus ugtP deletion strain | S. aureus RN4220 ugtP deletion, OD600 growth, 16 h; some inactives read as strong as hits | growth inhibition, % (test concentration not listed) | 330,000 compounds, 0.54% hits;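 active = z-score under -3 and OD600 up to 0.15 on both plates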;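 note: plate controls were untreated wells for no effect and antibiotic for full effect; wells of about 80 µL received 100 nL stock; the first replicate is given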
Mtb hypoxia rep: inhibitors of hypoxia-regulated fluorescent reporter in Mycobacterium tuberculosis; M. tuberculosis hypoxia-regulated fluorescent reporter, fluorescence; fluorescence inhibition, % (concentration not given with the values); 300,000 compounds, 0.1% hits; AID 1159583;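 active = 35 to 45% if threefold the growth effect, above 45% if 1.5-fold the growth effect; inactive = the rest, general growth blockers included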;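 note: wells of about 50 µL received 100 nL stock; 0% = vehicle wells and 100% = reference inhibitor wells; whole bacteria with a GFP reporter of the hypoxia response; strong numbers were not always called active; many hits fall short of the cut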
Mtb hypoxia rep growth: recorded beside Mtb hypoxia rep, whose call it bears; growth inhibition, %; measured here: M. tuberculosis growth (absorbance);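 0% = vehicle and 100% = reference antibiotic; read after six days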
* marks the source's active call; other numbers are inactive results; ? = inconclusive; . = no result given.

SMILES	Autofluor counter	PrP 5UTR inh	BJeLR viability	RN4220 kill	Sa ugtP lethal	Mtb hypoxia rep	Mtb hypoxia rep growth
Cc1ccc(CN2CC(C(=O)Nc3ccc(S(=O)(=O)Nc4cc(C)nc(C)n4)cc3)CC2=O)cc1 (stereo unspecified)	3313	-25	0	-0.5	-1	5	11
Cc1ccccc1CN1CCN(Cc2cc(=O)c3ccccc3[nH]2)CC1CCO (stereo unspecified)	4225	-8	2	5.6	11	15	4
CCOc1ccc(OCC(=O)OCC(=O)Nc2ccccc2C#N)cc1	5530	-44	.	2.7	-1	0	3
O=c1[nH]c(=S)n(C2CC2)c(O)c1C=NCCc1ccccc1	.	.	-2	4.3	10	-4	-1
C=CCn1cnc2c(c1=O)c1nc3ccccc3nc1n2/N=C/c1cc(OC)c(OC)c(OC)c1	2687	-42	17	.	.	.	.
COc1ccccc1-n1c(SCC(=O)NCC2CCCO2)nc2c([nH]c3ccccc32)c1=O (stereo unspecified)	5925	-8	4	9.1	7	-5	-5
O=C(O)c1ccc(N2CCN(Cc3ccc4c(c3)OCO4)CC2)c([N+](=O)[O-])c1	3620	-4	2	11	2	2	4
CN1CCN(N=Cc2c[nH]c3ccccc23)CC1	.	.	.	1.4	-5	-5	-4
CN(C(=O)COC(=O)c1cncc(Br)c1)C1CCCCC1	3003	-13	.	3.2	4	4	2
CCOC(=O)N1CCC(NC(=O)CC2C(=O)NCCN2Cc2ccccc2F)CC1 (stereo unspecified)	5018	-10	-7	3.4	7	9	1
C=CCc1cccc(CNc2nc3ccccc3n2CC)c1O	.	2	-2	-14	-6	.	.
Cc1ccnc(N/C=C(/NC(=O)c2ccccc2)C(=O)NN)n1	2050	-12	9	3.8	7	0	5
Cc1cc(=O)[nH]c(SCc2csc(-c3ccccc3)n2)n1	2465	0	-15	9.7	0	-1	7
Cc1c2cnn(CC(=O)Nc3c(F)c(F)cc(F)c3F)c(=O)c2c(C)n1Cc1ccc(F)cc1	.	.	-1	5.1	-2	10	14
CCCOc1ccc(-c2c(C(=O)NN=C(C)c3cccs3)nnn2-c2nonc2N)cc1	.	.	.	7.3	2	10	0
CC(=O)c1cc(C)ccc1OC(=O)CN1C(=O)c2ccccc2C1=O	.	-13	4	2.2	9	-3	-7
CCS(=O)(=O)N1CCC(C(=O)NC2CCCCC2)CC1	7246	-16	-7	3.3	13	11	1
CCN1C[C@]2(OC(=O)c3ccccc3NC(C)=O)CCC(OC)C34C5C[C@H]6C(OC)[C@]5(O)[C@](O)(C[C@@H]6OC)C(C[C@@H]32)[C@H]14 (stereo partly specified)	3880	-25	-6	-1.0	6	5	-12
CC(C)c1ccccc1OCC(=O)NC1CCCc2ccccc21 (stereo unspecified)	7571	-18	-11	4.4	-1	8	2
O=C(COc1ccc2ccccc2c1Br)NNC(=O)Nc1ccccc1	10371	-26	4	-2.9	-15	1	2
CCOC(=O)COc1ccc(C(=O)NC2CCCCC2)cc1	20056*	-16	0	2.3	1	5	3
NS(=O)(=O)c1ccc(CCNC(=O)CCCn2ncn3c(cc4occc43)c2=O)cc1	?	-9	1	2.8	2	6	-3
COc1cc2c(cc1OC)C(c1ccccc1)N(C(=O)C(C)(C)C)CC2 (stereo unspecified)	3229	-18	15	3.1	2	-3	4
Cc1ccc(C2CC(=O)Nc3cc4c(cc32)OCO4)o1 (stereo unspecified)	23026*	-13	-1	-0.8	-3	6	7
NC(=O)c1ccc(Cc2ncc(C(F)(F)F)cc2Cl)s1	2275	5	-3	-2.9	8	.	.

Next section
SMILES	Autofluor counter	PrP 5UTR inh	BJeLR viability	RN4220 kill	Sa ugtP lethal	Mtb hypoxia rep	Mtb hypoxia rep growth
CC(C(=O)Nc1ccc2c(c1)OCO2)N1CCN(C)CC1 (stereo unspecified)	6619	0	-3	1.1	0	16	14
CCN1C[C@]2(COC)CC[C@H](O)[C@@]34C5C[C@H]6[C@H](O)C5[C@](O)(C[C@H]6OC)[C@@H]([C@H](OC)C23)[C@@H]14 (stereo partly specified)	5545	.	6	-2.0	-23	.	.
O=c1oc2ccccc2cc1-c1nc2ccccc2o1	8144	-57	.	15	0	8	8
COC(=O)c1cc(S(=O)(=O)N2CCN(c3ccc(C(C)=O)cc3)CC2)cn1C	5644	-7	4	4.0	5	4	3
Cc1ccc2c(c1)nnn2C1CCN(C(=O)c2cccs2)CC1	6222	-5	3	-5.6	-5	-2	-2
Cc1sc2ncnc(N(C)Cc3ccco3)c2c1C	3182	-6	-5	2.2	5	1	7
CCOC(=O)C(Cc1ccccc1)C(=O)Nc1ccc(NC(=O)C(Cc2ccccc2)C(=O)OCC)cc1 (stereo unspecified)	2424	-19	8	1.0	1	10	-3
COC(=O)c1ccc(NC(=O)Cn2nc(SC)n(N)c2=S)cc1	2875	-22	-5	2.6	6	.	.
C=CCNc1nc(C(=O)OCC(=O)N(Cc2ccccc2)C(C)C)cs1	3902	-16	.	5.0	-6	-5	6
CCN(CC)C(=O)CCn1nc(-c2ccc(C)cc2)c2ccccc2c1=O	3571	.	6	4.7	-2	10	9
COCCOC(=O)c1c(C)oc2ccc(NS(=O)(=O)c3ccc(C)cc3)cc12	4245	-23	4	6.5	25	7	10
COCCOc1cc(-n2cccc2)c(Cl)cc1Cl	2598	-20	0	5.0	-4	-3	12
COC(=O)c1sc(C(=O)OC)c(C(=O)OC)c1C(=O)OC	2144	-21	7	12	5	10	7
COc1cc2c(cc1OC)CN(C(C)C(=O)Nc1ccc(NC(C)=O)cc1)CC2 (stereo unspecified)	17392*	-10	0	4.1	12	8	8
CCOC(=O)c1sc(=S)n(C)c1NC(=O)c1ccccc1Cl	10796	-10	4	5.7	3	11	8
Nc1nnc(SCC(=O)OCc2ccccc2)s1	8992	-16	-14	2.9	0	15	2
O=c1c2ccccc2cnn1CCOc1cccc(Br)c1	5077	-85	6	9.0	2	-4	-2
S=c1[nH]nc(-c2cccs2)n1N=Cc1cccs1	.	.	.	17	13	7	16
O=C(NN=Cc1ccncc1)NC1CCCCC1	.	.	.	1.8	1	12	-1
CC(NC(=O)c1ccc(S(=O)(=O)Nc2ccccc2Cl)cc1)c1ccncc1 (stereo unspecified)	4037	-5	.	1.8	2	12	16
CC(C)N1CCN(Cc2ccc(Sc3nncn3C)o2)CC1CCO (stereo unspecified)	3528	-27	16	0.5	4	3	12
O=C1NC2(CCCC2)N=C1c1ccc(Cl)cc1	23960*	-17	-2	4.6	9	4	4
COc1ccc(CNC(=O)C2CCN(S(=O)(=O)c3cccnc3)CC2)cc1	5214	-23	10	2.5	8	-5	-7
Clc1cccc(NN=Cc2ccc(N3CCOCC3)s2)c1	.	.	.	1.7	5	24	0
CSc1ccc(CNC(C)C(O)c2ccccc2)cc1 (stereo unspecified)	3915	-12	-23	0.8	1	4	-4

Continuation:
SMILES	Autofluor counter	PrP 5UTR inh	BJeLR viability	RN4220 kill	Sa ugtP lethal	Mtb hypoxia rep	Mtb hypoxia rep growth
COc1ccccc1/C=C/C(=O)OCC(=O)NC1CCCCCC1	3586	-27	.	1.3	3	20	7
CCC(=O)NCc1cc(-c2nn(C)c(=O)c3ccccc23)ccc1OC	4407	-4	-5	5.3	12	4	9
COc1ccc(/C=N/OC/C(O)=C(\C#N)c2nc3ccccc3[nH]2)cc1	22111*	-15	-6	.	.	.	.
Cn1c(=O)c2c(nc(Br)n2Cc2nnc(N)s2)n(C)c1=O	4795	-11	1	5.7	16	-3	-2
O=C(Nc1ccc2nsnc2c1)N1CCCCCC1	4468	-34	-8	-1.2	0	8	17
C/C(=N\NC(=O)c1c(C)nc2ccccn12)c1cccc([N+](=O)[O-])c1	4260	-3	0	.	.	.	.
O=C(CSc1ccc2ccccc2n1)N1CCC(c2noc3ccc(F)cc23)CC1	22244*	-30	-14	3.3	-2	4	8
COc1ccc(C2SCC(=O)N2CCc2ccc(OC)c(OC)c2)cc1 (stereo unspecified)	2367	-12	25	6.5	7	12	6
Cn1c(-c2csc(-c3cccc(C(F)(F)F)c3)n2)n[nH]c1=S	4449	-13	-2	-1.5	8	13	10
CCc1c(C)nc2ncnn2c1NCc1cccs1	11121	-16	-1	6.0	3	3	3
CCn1c2ccccc2c2cc(NC(=O)c3cc(OC)cc(OC)c3)ccc21	2769	31	37	.	.	.	.
Cc1ccc2nc(SCC(=O)Nc3ccc4sc(C)nc4c3)c(C#N)cc2c1	10098	-53	-3	5.7	4	-1	1
CC1=CC(c2ccccc2)n2nc(N3C(=O)c4ccccc4C3=O)nc2N1 (stereo unspecified)	9123	-15	-3	0.1	-5	3	6
COc1ccc(N2CCN(C(=O)CN(Cc3ccc(Cl)cc3)S(C)(=O)=O)CC2)cc1	11827	-31	-7	2.8	4	0	1
Cc1c(NS(=O)(=O)c2cc(Br)cc3c2N(C(=O)C2CC2)CC3)c(=O)n(-c2ccccc2)n1C	4363	-22	8	2.5	-5	-2	-5
CCCc1cc(=O)[nH]c(SCC(=O)NC(=O)OCC)n1	5979	-6	-6	0.3	8	10	2
S=C(NCc1ccco1)Nc1ccc(Oc2ccccc2)cc1	2201	-39	-3	4.2	-8	18	7
CC1(c2ccccc2)NC(=O)N(CC(=O)N2CCN(S(=O)(=O)c3cccs3)CC2)C1=O (stereo unspecified)	5645	-16	-8	2.5	6	0	-8
O=C1N/C(=N\N=C\c2cccs2)SC1Cc1ccc(Cl)c(Cl)c1 (stereo unspecified)	4544	-21	11	.	.	.	.
CCC1CCCCN1C(=O)CCNS(=O)(=O)c1ccc2c(c1)oc(=O)n2C (stereo unspecified)	4939	-23	10	5.3	8	1	0
Cc1cc(C)n(-c2ccc(C(=O)Nc3cccnc3Cl)cc2)n1	2066	-24	-1	2.5	-6	3	3
Nc1nc(Cl)cc(-c2ccccc2)n1	4715	-26	5	16	-11	-7	5
CCCCC(Sc1nc(C)c(Cc2ccccc2)c(=O)[nH]1)C(=O)O (stereo unspecified)	3713	-59	6	3.8	10	10	8
N#Cc1ccc(-c2ccc(OCC(=O)NCCCN3CCCC3=O)cc2)cc1	4039	-4	0	7.0	10	5	9
CSc1nc2c(C)c(C)c(C)c(C)c2[nH]1	5497	-18	-1	1.3	2	8	-1

(list continues)
SMILES	Autofluor counter	PrP 5UTR inh	BJeLR viability	RN4220 kill	Sa ugtP lethal	Mtb hypoxia rep	Mtb hypoxia rep growth
COc1ccc(C(=O)N2CCCCCC2)cc1OC1CCN(C(C)=O)CC1	?	-12	-1	1.9	5	8	12
Cc1cc2c(Nc3ccc(C(=O)O)cc3)ncnc2s1	3119	16	-16	-0.7	3	-2	0
CC(C)CC(=O)NN=Cc1c(N)n(C)c(=O)n(C)c1=O	.	.	.	4.1	9	8	3
COc1cc2c(C(=O)NCc3ccc(C)o3)cn(CC(C)C)c(=O)c2cc1OC	3099	1	3	6.5	8	.	.
CC1(C)C(C=C(Cl)Cl)C1C(=O)N(Cc1cccc(Cl)c1)C1CCS(=O)(=O)C1 (stereo unspecified)	2110	-27	2	4.5	7	.	.
CCCCC(CCC(=O)O)(C(=O)OCC)c1csc(Nc2ccc(OCC)cc2)n1 (stereo unspecified)	3970	-79	1	10	8	1	10
Nc1c([N+](=O)[O-])c(=O)oc2ccccc12	4372	-11	-4	3.3	-2	-8	1
COc1cccc(NC(=O)N2CCCC2C(=O)Nc2ccc3c(c2)OCO3)c1 (stereo unspecified)	3644	-4	-2	5.4	-2	16	12
Cc1cccc(NC(=S)NC(C)(C)CC(C)(C)C)c1	3295	-6	0	7.3	3	-12	14

Random excerpt: five compounds from above.
SMILES	Autofluor counter	PrP 5UTR inh	BJeLR viability	RN4220 kill	Sa ugtP lethal	Mtb hypoxia rep	Mtb hypoxia rep growth
CCOc1ccc(OCC(=O)OCC(=O)Nc2ccccc2C#N)cc1	5530	-44	.	2.7	-1	0	3
COc1ccccc1/C=C/C(=O)OCC(=O)NC1CCCCCC1	3586	-27	.	1.3	3	20	7
COc1ccc(C(=O)N2CCCCCC2)cc1OC1CCN(C(C)=O)CC1	?	-12	-1	1.9	5	8	12
CCOC(=O)C(Cc1ccccc1)C(=O)Nc1ccc(NC(=O)C(Cc2ccccc2)C(=O)OCC)cc1 (stereo unspecified)	2424	-19	8	1.0	1	10	-3
CC(C(=O)Nc1ccc2c(c1)OCO2)N1CCN(C)CC1 (stereo unspecified)	6619	0	-3	1.1	0	16	14

Compound activity deposited in PubChem BioAssay by several laboratories.
